NS1 function inh = qHTS Assay for Inhibitors of Influenza NS1 Protein Function | 0.4% of 270,000 active | Potency, µM (doses to about 46.1 µM), inactives show at the highest dose activity, positive = more growth | S. cerevisiae slowed by influenza A NS1, growth recovery by OD600; active means well fitted rising curve with a large enough effect; inconclusive means small, poorly fitted or top-dose-only effect; inactive means no such curve, though single readings can be large or run the other way; note: nearly all actives have a fitted effect of over 50% in size
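Read-out: OD600 growth recovery of NS1-expressing budding yeast. Cells grown overnight at 30C in -URA glucose medium, washed, resuspended and diluted 1:100 in 2% galactose assay medium, pH 6.0. Same strain lacking NS1 served as positive control.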
LASV entry inh = qHTS for Inhibitors of binding or entry into cells for Lassa Virus | AID 540256, 2011 | Potency, µM (series often up to 37.9 µM), without a hit: at the highest dose activity change, negative = inhibition, hits mostly inhibitors | 1.2% of 300,000 active | Lassa virus pseudotype entry inhibition, cell reporter; control for the full effect not named in the record; active means well fitted inhibition curve with a large enough effect; inconclusive means small, poorly fitted or top-dose-only effect, or effect the other way; inactive means flat fitted curve, though single readings scatter; tested in HEK293 cells; note: % is set by controls: 0 for no effect and ±100 for the full control effect; nearly all actives have a fitted effect of over 50% in size; luciferase read-out
Cruzain Triton = qHTS Assay for Promiscuous and Specific Inhibitors of Cruzain (with detergent) | purified cruzain, Z-FR-AMC fluorescence, 0.01% Triton | Potency, µM, without a hit: max response, negative = inhibition, hits mostly inhibitors | 0.43% of 200,000 active | AID 1478, 2009;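 note: plate controls were neutral wells for no effect and buffer without enzyme for full effect; nearly all actives have a fitted effect of over 40% in size; top concentration of the series not given in the record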
Target sequence (P25779 123-467 limits assumed): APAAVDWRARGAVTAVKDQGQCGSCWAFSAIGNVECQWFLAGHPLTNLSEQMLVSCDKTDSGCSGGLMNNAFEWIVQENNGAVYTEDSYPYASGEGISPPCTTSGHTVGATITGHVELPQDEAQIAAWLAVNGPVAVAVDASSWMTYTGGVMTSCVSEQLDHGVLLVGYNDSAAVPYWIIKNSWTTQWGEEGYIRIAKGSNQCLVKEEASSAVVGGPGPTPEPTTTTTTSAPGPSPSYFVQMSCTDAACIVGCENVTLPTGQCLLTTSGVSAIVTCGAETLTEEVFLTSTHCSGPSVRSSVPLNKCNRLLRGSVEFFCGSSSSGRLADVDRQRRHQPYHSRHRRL
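Enzyme 1.5 nM, Z-FR-AMC 2 uM, NaOAc 100 mM pH 5.5, DTT 5 mM, Triton X-100 0.01%; 15 min RT compound preincubation; kinetic ex360/em450, 60 s delta.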
2A StopGo = High Throughput Screening for Foot and Mouth Disease Virus Antivirals. AID 1159524, 2015. Potency, µM (highest dose often 57.9 µM), for inactives: at the top dose signal change, negative = less light. 1.2% of 410,000 active. human cells with a luciferase reporter of 2A StopGo recoding; control for the full effect not named in the record; active = well fitted falling curve with a large enough effect; inconclusive = small, poorly fitted or top-dose-only effect; inactive = no such curve, though single readings can be large or run the other way; tested in HEK293T cells; note: % is set by controls: 0 for no effect and ±100 for the full control effect; nearly all actives have a fitted effect of over 45% in size; luciferase light after 4 h
SARS PLpro yeast = qHTS of Yeast-based Assay for SARS-CoV PLP. S. cerevisiae expressing SARS-CoV PLpro, growth rescue; control for the full effect not named in the record. Potency, µM (series often up to 32.9 µM), for the others: at the highest dose activity, positive = growth rescue. 0.19% of 330,000 active. AID 485353, 2010; active means well fitted rising curve with a large enough effect; inconclusive means small, poorly fitted or top-dose-only effect; inactive means no such curve, though single readings can be large or run the other way; note: 0% is about no effect; nearly all actives have a fitted effect of over 55% in size; growth read by luminescence after 48 h
Marburg entry inh = qHTS for inhibitors of binding or entry into cells for Marburg Virus | Marburg virus pseudotyped entry inhibition, cell reporter; control for the full effect not named in the record; about a third of the inactives were read at about 46 µM | Potency, µM (top dose mostly 37.8 µM), for inactives: at the highest dose activity change, negative = inhibition, actives largely listed as inhibitors | 1.8% of 300,000 active | AID 540276, 2011; active = well fitted inhibition curve with a large enough effect; inconclusive = small, poorly fitted or top-dose-only effect, or effect the other way; inactive = flat fitted curve, though single readings scatter; tested in HEK293 cells; about a fifth of its hits are not listed in these tables; note: % is set by controls: 0 for no effect and ±100 for the full control effect; luciferase read-out
RE007 growth inh = qHTS Assay for Inhibitors of the HIV-1 protein Vpr; 0.21% of 360,000 active; S. pombe RE007 Vpr strain, BacTiter-Glo ATP luminescence, 24 h; control for the full effect not named in the record; Potency, µM (highest dose often 92.2 µM), without a hit: top-dose activity change, negative = less growth; active = well fitted falling curve with a large enough effect; inconclusive = small, poorly fitted or top-dose-only effect; inactive = no such curve, though single readings can be large or run the other way;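 note: % is set by controls: 0 for no effect and ±100 for the full control effect; nearly all actives have a fitted effect of over 50% in size; the assay follows cell death caused by Vpr and the record does not say whether a fall means rescue or toxicity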
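Fission yeast RE007 carrying one integrated HIV-1 vpr copy, seeded at OD 0.01 in PMG+AL medium with 23 nL pinned compound. Grown 24 h at 30 degrees; viability read by BacTiter-Glo luminescence after 5 min.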
Cruzain noTriton = qHTS Assay for Promiscuous and Specific Inhibitors of Cruzain (without detergent); Cruzipain (Trypanosoma cruzi), P25779; purified cruzain, Z-FR-AMC fluorescence, no detergent; Potency, µM, without a hit: max response, negative = inhibition, hits mostly inhibitors; 2.3% of 200,000 active; AID 1476, 2009;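 note: plate controls were enzyme without inhibitor for no effect and buffer without enzyme for full effect; nearly all actives have a fitted effect of over 40% in size; top concentration of the series not given in the record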
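Purified cruzain at 1.5 nM, pre-incubated 15 min with compound at room temperature in 100 mM sodium acetate pH 5.5, 5 mM DTT, 0.00005% Triton X-100. Reaction started with 2 uM Z-FR-AMC; AMC fluorescence increase over 60 s gives rate.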
Numbers without * were called inactive; ? = inconclusive; / = not tested or not shown; & = joins results of further samples; [ ] = remark or other dose. Unless noted, calls come from the whole dose curve; as a rule, active = well fitted curve in the direction sought with a large enough effect; inconclusive = small, poorly fitted or top-dose-only effect, or another doubt; inactive = no such curve, though single readings can be large; an effect the other way counts as inactive or inconclusive. Potency is the fitted concentration of half-maximal effect. Random draw from the library; overall some 4.5% were active at least once.

Value order – Marburg entry inh, NS1 function inh, LASV entry inh, Cruzain Triton, SARS PLpro yeast, Cruzain noTriton, 2A StopGo, RE007 growth inh
> Oc1ccccc1C=NC(c1ccccc1)C(O)c1ccccc1 (stereo not given)
  ?, 16%, 2%, -4.5%, 0%, -3%, ?, 23%
> Cc1ccc(S(=O)(=O)N2CCC(C(=O)NCCc3ccccn3)CC2)cc1
  -1%, -1%, -1%, /, 1%, /, -12%, -7%
> COc1ccc(C2=NNC(c3cccs3)=Nc3ccc(OC)cc32)cc1
  3%, ?, 1%, -6.3%, -32%, -20%, 11%, -11%
> Cc1ccc(C(=O)NCCC(C)C)cc1NC(=O)c1nsc2ccccc12
  /, /, -14%[46.1 µM], 1.2%, /, 8%, 10%, /
> CCS(=O)(=O)N1CC(=O)N(c2cccc(Cl)c2)C(C)(C(=O)NC2CCCCCC2)C1 (stereo not given)
  /, /, 17%[46.1 µM], 1.2%, /, 3%, -9%, /
> CCOC(=O)c1cc(C(=O)NNC(=O)c2cccc([N+](=O)[O-])c2)c(C)nc1C
  0%[46.1 µM], /, ?, /, 2%, /, 1%, -9%
> CCOC(=O)Nc1ccc2c(c1)N(C(=O)CN(CC)CC)c1ccccc1CC2
  0%, 3%, 5%, /, 3%, /, -18%, -10%
> COC(=O)C1=C(N)Oc2cc(C)n(CC3CCCO3)c(=O)c2C1c1ccccc1OC (stereo not given)
  -1%, -15%, -5%, -0.9%, 6%, -1%, -6%, -4%
> O=C(COC(=O)CCC(=O)c1cccs1)NCCc1ccccc1
  4%[46.1 µM], /, 13%[46.1 µM], /, -1%, /, -7%, 13%
> Nc1nc(-c2cccc(F)c2)cs1
  17%[46.1 µM], 6%, 0%[46.1 µM], /, 1%, /, 25%, ?
> CCOC(=O)c1c(NC(=O)Cn2cc([N+](=O)[O-])cn2)sc2c1CCC2
  -13%, -5%, -13%, -2.3%, -6%, -6%, /, -5%
> c1ccc(Cn2ccnc2-c2ccco2)cc1
  3%, -1%, ?, 1.5%, 10%, -3%, 26%, -7%
> COc1cc(/C=N/NC(=O)c2cc[n+]([O-])cc2)ccc1O
  30%[46.1 µM], 14%, 2%[46.1 µM], /, 1%, /, 22%, 0%
> CC(=O)Nc1cccc(NC(=O)Nc2ccc(C(C)=O)cc2)c1
  6%, 3%, -3%, 0.6%, 2%, 19%, 16%, -2%
> Cc1nnc2n(C3CCCCC3)c(=O)c3c4c(sc3n12)CCC4
  /, -2%, /, 2.7%, -4%, -4%, /, /
> O=c1[nH]c2ccccc2cc1-c1nnn(-c2ccc(F)cc2)n1
  /, 0%, /, /, -2%, /, 64%[activator], 1%
> CCOC(=O)c1ccc(NC(=S)N(CCN2CCCCCC2)Cc2ccco2)cc1
  ?, 1%, -23%[46.1 µM], /, -1%, /, 5%, -20%
> CC(C)(C)C(=O)Nc1cc(NC(=O)C(C)(C)C)cc(C(=O)Nc2cc(C(=O)O)cc(C(=O)O)c2)c1
  6%, ?, ?, -3.4%, 26%, -1%, 1%, 3%
> O=[n+]1c2c(n([O-])c3cc(F)c(N4CCCC4)cc31)CCC2
  ?, -6%, 3%, /, /, /, 15%, 3%
> Cc1cccn2c(=O)c(/C=C(\C#N)C(=O)NC3CCS(=O)(=O)C3)c(N3CC(C)OC(C)C3)nc12 (stereo not given)
  -17%[46.1 µM], -4%, 0%, /, 1%, /, -6%, 8%

Another view of some results above.
Nc1nc(-c2cccc(F)c2)cs1
  Marburg entry inh: 17%[46.1 µM] | NS1 function inh: 6% | LASV entry inh: 0%[46.1 µM] | Cruzain Triton: / | SARS PLpro yeast: 1% | Cruzain noTriton: / | 2A StopGo: 25% | RE007 growth inh: ?

CC(C)(C)C(=O)Nc1cc(NC(=O)C(C)(C)C)cc(C(=O)Nc2cc(C(=O)O)cc(C(=O)O)c2)c1
  Marburg entry inh: 6% | NS1 function inh: ? | LASV entry inh: ? | Cruzain Triton: -3.4% | SARS PLpro yeast: 26% | Cruzain noTriton: -1% | 2A StopGo: 1% | RE007 growth inh: 3%

Cc1cccn2c(=O)c(/C=C(\C#N)C(=O)NC3CCS(=O)(=O)C3)c(N3CC(C)OC(C)C3)nc12 (stereo not given)
  Marburg entry inh: -17%[46.1 µM] | NS1 function inh: -4% | LASV entry inh: 0% | Cruzain Triton: / | SARS PLpro yeast: 1% | Cruzain noTriton: / | 2A StopGo: -6% | RE007 growth inh: 8%

Following part:
Value order – Marburg entry inh, NS1 function inh, LASV entry inh, Cruzain Triton, SARS PLpro yeast, Cruzain noTriton, 2A StopGo, RE007 growth inh
> CCC(C)c1ccc(S(=O)(=O)N2CCN(C(C)CC(=O)O)CC2)cc1 (stereo not given)
  28%, /, -4%, /, 2%, /, -16%, -13%
> CC1CN(C(=O)COC(=O)c2ccc(N(C)C)cc2)CC(C)O1 (stereo not given)
  7%[46.1 µM], 7%, 2%[46.1 µM], /, 0%, /, 1%, -1%
> CCOc1ccc(NC(=O)CSc2nc(-c3ccc(F)cc3)cc(C(F)(F)F)c2C#N)cc1
  0%[46.1 µM], /, -3%[46.1 µM], -0.4%, /, 12%, 2%, /
> Cc1nc2nc[nH]n2c(=O)c1NS(=O)(=O)c1ccc([N+](=O)[O-])cc1
  -1%[46.1 µM], -1%, -13%, /, -1%, /, -2%, 8%
> O=C(Nc1ccccc1N1CCOCC1)c1ccc(S(=O)(=O)NCc2ccco2)cc1
  -8%, /, -1%, /, 3%, /, 47%[activator], 1%
> Cc1ccc(NC2CCCN(C(=O)c3ccoc3C)C2)cc1C (stereo not given)
  ?, 4%, -7%, /, -3%, /, -18%, -11%
> Cc1ccc(CC(=O)Nc2ncc([N+](=O)[O-])s2)cc1
  /, -33%, /, /, -3%, /, 62%[activator], -8%
> C/C(CC(=O)Nc1cc(C)ccn1)=N\NC(=O)c1ccccc1C
  ?, 3%, /, /, 1%, /, 33%[activator], -9%
> O=S(=O)(NC1CCCCC1)c1ccc(Br)cc1
  ?, -63%, 0%, -1.4%, -1%, -11%, 39%[activator], -7%
> C=CCN(CC=C)C(=S)NC(=O)c1ccc(-c2ccccc2)cc1
  ?, -51%, -30%, -0.8%, -17%, -13%, -5%, -4%
> CCCn1c(C(C)Nc2nc(-c3ccc(C)cc3)cs2)nc2cc(Cl)c(N3CCCCC3)cc21 (stereo not given)
  /, ?, /, /, -5%, /, -7%, 3%
> CCOC(=O)c1c(CN(C)C)n(-c2ccc(C)cc2)c2cc(Br)c(O)cc12
  ?, 4%, ?, 0.0%, 3%, -1%, -16%, 16%
> O=C1c2cccnc2C(=O)N1Cc1ccc(S(=O)(=O)N2CCOc3ccc(Cl)cc32)cc1
  6%[46.1 µM], 4%, 11%[46.1 µM], /, 0%, /, -20%, -1%
> Cc1ccc(C)c(N(C(=O)CNC(=O)c2ccco2)C(C(=O)NC2CCCCC2)c2ccncc2)c1 (stereo not given)
  -6%[46.1 µM], -11%, -2%, /, -1%, /, -15%, 7%
> CCC(C)(C)NC(=O)C1CC(=O)N(CCc2ccc(F)cc2)C1 (stereo not given)
  5%, 2%, 5%, /, 1%, /, -15%, 4%
> CCCC(=O)Nc1ccc2c(c1)nc(CCNC(=O)c1ccco1)n2C
  9%[46.1 µM], 7%, -6%[46.1 µM], /, 0%, /, -18%, -11%
> Cc1c(-c2ccccc2)[n+](=O)c2c(n1[O-])CCCC2
  3%[46.1 µM], -1%, 1%, /, 0%, /, 1%, 16%
> Fc1ccc(NC(=S)Nc2cccc(Cl)c2)cc1
  3%, -66%, -2%, 0.0%, -29%, 5%, 41%[activator], -19%
> CCOC(=O)N1CCN(c2ncnc3c2oc2nc(C)c4c(c23)CC(C)(C)OC4)CC1
  /, -3%, /, 2.6%, 2%, ?, /, /
> COCc1[nH]nc2c1C(c1ccccc1OC)C(C#N)=C(N)O2 (stereo not given)
  0%&16%, 3%, 12%, 3.9%, 1%, -2%, -19%, -2%

Molecules listed so far containing bromine (2):
Value order – Marburg entry inh, NS1 function inh, LASV entry inh, Cruzain Triton, SARS PLpro yeast, Cruzain noTriton, 2A StopGo, RE007 growth inh
> O=S(=O)(NC1CCCCC1)c1ccc(Br)cc1
  ?, -63%, 0%, -1.4%, -1%, -11%, 39%[activator], -7%
> CCOC(=O)c1c(CN(C)C)n(-c2ccc(C)cc2)c2cc(Br)c(O)cc12
  ?, 4%, ?, 0.0%, 3%, -1%, -16%, 16%

New compounds follow
Value order – Marburg entry inh, NS1 function inh, LASV entry inh, Cruzain Triton, SARS PLpro yeast, Cruzain noTriton, 2A StopGo, RE007 growth inh
> N#CC(C#N)=NNc1ccc(S(=O)(=O)N2CCCCC2)cc1
  ?, -35%, 0%, -11%, -3%, -21%, ?, /
> CC(=O)Nc1ccc(S(=O)(=O)Nc2nc3ccc(C)cc3s2)cc1
  5%, 1%, 9%, -7.7%, 2%, 2%, 108%[activator], 1%
> Brc1ccc2nc(-c3ccncc3)c(NC3CCCC3)n2c1
  -30%[46.1 µM], 0%, ?, /, 0%, /, -15%, -1%
> O=C(c1cccc2c1-c1ccccc1/C2=N/O)N1CCCCC1
  -20%, -11%, 16%, -2.0%, 1%, -3%, -30%, -2%
> CC(CNC(=O)CCS(=O)(=O)c1ccc2c(c1)oc(=O)n2C)c1ccccc1 (stereo not given)
  18%&18%[46.1 µM], -1%, 11%&10%[46.1 µM], -0.9%, 0%, -10%, 7%&-6%, 13%
> COC(=O)c1sc2nc(SCc3cccc(F)c3)n(N)c(=O)c2c1C
  -9%, 7%, ?, -2.2%, 18%, -17%, -9%, 4%
> Cc1ccc(-c2nc(-c3cccnc3)sc2CC(=O)O)cc1
  /, 7%, /, /, 1%, /, -15%, -6%
> Cc1cc(C)nc(N2CCCC(C(=O)Nc3nc4ccc(S(C)(=O)=O)cc4s3)C2)n1 (stereo not given)
  -29%, -39%, 12%, -4.3%, -1%, ?, ?, 7%
